MgrA-DNA mod: S. aureus MgrA-DNA binding modulation | fluorescence polarization | inhibition, %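 (about 10 µg/mL by stock and volumes)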 | 0.13% of 84,000 active | AID 602314;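 active = above 50% in either of two replicates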;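 also: 0% = protein plus DNA without compound and 100% = DNA alone without protein; higher means less MgrA bound to DNA so lower polarization; one replicate is shown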
Sa helicase inh: S. aureus DNA helicase inhibition; inhibition, %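 (tested at about 80 µM)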; purified S. aureus helicase, fluorescence unwinding assay; about half of the hits fall short of the stated cut; 0.05% of 120,000 active; AID 485395;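 active = both duplicates at 50% or more, or one of them with a favoured structure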;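 also: 0% = mean of negative control wells and 100% = mean of positive control wells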
* = called active by the depositor; x = not tested or not shown; & = joins results of further samples.

SMILES	MgrA-DNA mod	Sa helicase inh
O=C(CCCOc1ccccc1)Nc1ccccc1	x	8
CC1=C(C)CC2C(=O)N(c3ccc(N4CCOCC4)cc3)C(=O)C2C1 (stereo unspecified)	2.3	-6
COc1ccc(CC(=O)Nc2cccc(-c3ccc(S(C)(=O)=O)nn3)c2)cc1	x	13
CCOC(=O)CN1CCCCCC1=O	x	2
COc1cccc(C2CC(=O)N(c3ccccc3)C3=C2C(=O)CCC3)c1OC (stereo unspecified)	-2.0	-9
O=C1OCCC1OC(=O)C(c1ccccc1)c1ccccc1 (stereo unspecified)	x	8
CCC(SC1=NC(=O)C(c2ccccc2)C(=O)N1)C(=O)Nc1sc2c(c1C#N)CCCC2 (stereo unspecified)	4.5	1
Cc1cccc(NC(=O)N2CCOc3ccc(Cl)cc32)c1	5.2	8
CCOCC(O)CN (stereo unspecified)	x	-10
CCOc1ccc(N2C(=O)CC(N(Cc3ccc(Cl)cc3)C(=O)c3ccc(Cl)cc3)C2=O)cc1 (stereo unspecified)	-1.9	6
O=C(/C=C/c1ccco1)NC1CCCC1	x	14
CNc1nc(OCC(F)(F)C(F)F)nc(N(c2ccccc2)c2ccccc2)n1	-0.3	-9
CN(C)C(=O)CN1c2cccc3cccc(c23)S1(=O)=O	x	16
CCNC(=S)N(Cc1ccccc1)Cc1nc2ccccc2c(=O)[nH]1	-0.2	-3
O=C(CCN1C(=O)/C(=C/c2ccccc2)SC1=S)Nc1ccc(S(=O)(=O)Nc2nccs2)cc1	3.0	x
CCOC(=O)c1oc2ccccc2c1CN1C(=O)c2ccccc2C1=O	x	-20
O=C(COc1ncnc2ccccc12)NCC1CCCCC1	-1.9	-17
O=C(O)CCN=Cc1c(O)c2ccccc2oc1=O	2.8	11
N#CCCn1nc(-c2ccccc2)cc1C(=O)N/N=C/c1ccncc1	x	-7
CCCCOc1ccc(C2=N/C(=C\c3ccc(OC(C)=O)c(OC)c3)C(=O)O2)cc1	1.5	x
Cc1cccc(OC(=O)CSc2nnc(C)c3ccccc23)c1	-4.4	x
CCOC(=O)C1=C(CSc2nc(-c3ccncc3)ccc2C#N)OC(N)=C(C#N)C1c1ccc(OC)cc1 (stereo unspecified)	3.2	x
CC(=O)Nc1ccc2c(CSc3nnc4nc(C)cc(C)n34)cc(=O)oc2c1	x	5
S=c1[nH]c2ccccc2n1Cc1ccccc1Cl	x	6
CCc1ccc(-c2nc(SCC(=O)NC3(C#N)CCCCC3)n[nH]2)cc1	x	-9
O=C(NCc1c(F)cccc1Cl)c1ccc(Cl)cc1	0.9	x
COc1ccc(NC(=O)C(c2ccccc2)N(C)C(=O)Cc2c[nH]c3ccccc23)cc1 (stereo unspecified)	x	5
CC(=O)Nc1nonc1-n1c(C)ccc1C	x	12
CCN(CC(=O)NCc1ccc(F)cc1)C(=O)c1cn(CC)c2nc(C)ccc2c1=O	x	-7
CCc1n[nH]c2c1/C(=N\O)CC(C)(C)C2	2.6	-1
Cc1ccc(-c2csc(NC(=O)c3coc4ccccc4c3=O)n2)o1	x	-2
CCCSc1nc2c(c(=O)n1-c1ccccc1)SCC2	x	-2
Cc1ccn2cc(-c3cccs3)cc2c1	2.5	10
Cn1nccc1NS(=O)(=O)c1ccc(NC(=O)C(F)(F)F)cc1	x	-19
O=C(NCc1ccsc1)c1ccc(N2CCOCC2)nc1	1.2	x
CCCc1cc(-n2cnc3ccccc32)n2c(nc3ccccc32)c1C#N	6.7	-14
S=C1SCN(CCN2CCOCC2)CN1Cc1ccccc1	-2.5	6
N#CC(Nc1cc(Cl)cc(Cl)c1)c1ccccc1 (stereo unspecified)	1.0	x
O=c1c2ccccc2ncn1Cc1ccccc1	x	4
CC1CN(C(=O)COC(=O)c2ccc3c(c2)C(=O)N(c2ccc(Cl)cc2)C3=O)CC(C)O1 (stereo unspecified)	x	16
O=C(O)c1cc([N+](=O)[O-])ccc1NCc1ccco1	0.7	x
N#Cc1c(N2C(=O)CCC2=O)sc2c1CCCC2	0.7	x
O=C(/C=C/c1ccccc1)Nc1ccc(O)cc1	x	-9
N#CCCn1cc(CO)c(-c2ccc(F)cc2)n1	4.3	-10
CCOC(=O)C1CCN(C(=O)c2n[nH]c(=O)c3ccccc23)CC1	1.4	5
O=C(NC1CCN(Cc2c[nH]c3ccccc23)CC1)C1CCCCC1	-0.2	x
COC(=O)c1cc2oc(C)cc2n1CC(=O)c1ccccc1	-0.7	8
N#CC1=C(N)OC2=C(C(=O)CCC2)C1CCc1ccccc1 (stereo unspecified)	x	-7
O=C(CN1C(=O)C2C3C=CC(C3)C2C1=O)N1CCSC1=NCCc1ccccc1 (stereo unspecified)	x	-5
COc1ccc(C2=NS(=O)(=O)N(C)C(C(=O)N3C(C)CCCC3C)=C2)cc1 (stereo unspecified)	x	-16
CCc1cc(C(N)=S)ccn1	-1.1&-1.8	x
CCCc1cc(=O)oc2cc(C)cc(OC(=O)c3ccco3)c12	3.4	2
CC1=CS(=O)(=O)CC1Sc1ncn[nH]1 (stereo unspecified)	-2.5	-5
CC(OC(=O)NC1CCCCC1)c1cc2ccccc2o1 (stereo unspecified)	x	-7
COC(=O)C1Cc2[nH]cnc2C(c2ccc(OC)c(OC)c2OC)N1 (stereo unspecified)	x	4
CCc1ccc(-n2c(C)ccc2C)cc1	-1.2	-31
Cc1ccc(C)c(OCCCC(=O)Nc2ccc(N3CCOCC3)cc2)c1	15	6
Cn1cc(P(=S)(N2CCOCC2)N2CCOCC2)cc1P(=S)(N1CCOCC1)N1CCOCC1	x	-18
Cc1ccc(NC(=O)CN(C)C(=O)CSc2n[nH]c(=O)n2Cc2ccccc2)cc1	x	23
COc1ccc(NC(=S)N(CCCN2CCOCC2)Cc2ccccn2)cc1	x	-24

Later entries:
SMILES	MgrA-DNA mod	Sa helicase inh
COc1ccc(CNC(=S)NCCO)cc1	-0.8	x
CC(NC(=O)c1cccc2c1C(=O)N(Cc1cccnc1)C2)c1cccs1 (stereo unspecified)	9.9	1
O=C1S/C(=C\c2ccccc2)C(=O)N1c1ccc(O)cc1	x	16
CCC(=O)NCCc1nc2ccccc2n1Cc1ccccc1	x	-18
CCOc1cc2oc(=O)c3c(c2cc1Cl)CCC3	0.6	2
CCn1c(Cc2ccccc2)nnc1SCC(=O)c1ccc2c(c1)OCO2	x	-1
O=C1NC(c2ccccn2)Nc2sc3c(c21)CCCC3 (stereo unspecified)	8.9	9
O=C(N/N=C/C1=C(N2CCOCC2)C(=C\c2ccccc2)/CC1)c1ccccc1	x	5
CCN(CC)S(=O)(=O)c1ccc(NC(=O)c2cc(-c3cccs3)nc3ccccc23)cc1	1.9	8
O=C(O)CN1C(=O)c2cccnc2Sc2ccccc21	x	6
CCn1cc(Br)c(C(=O)NCc2ccco2)n1	x	3
Cc1c(C#N)c(O)[nH]c(=O)c1N=Nc1ccc(S(N)(=O)=O)cc1	x	-15
CN(C)c1ccc(CNCCCn2ccnc2)cc1	1.2	15
CC(C)c1nc(=S)c2cc(Br)cc(Br)c2[nH]1	-1.5	-1
CN(C(=O)C1CC(c2ccc(F)cc2)=NO1)C1CCCCC1 (stereo unspecified)	x	9
O=c1cc(C(F)(F)F)nc(N2CCCC2)[nH]1	-2.0	x
CC(C)N=c1scc(-c2cccs2)n1/N=C/c1ccc(O)c(O)c1O	x	16
O=C(CSc1nc2c(c(=O)n1-c1ccccc1)SCC2)NC1CCCCC1	x	-4
O=C(O)Cc1nonc1NCNc1nonc1CC(=O)O	-1.9	x
Cc1ccc(OC(C)C(=O)Nc2ccc3c(c2)OCCO3)cc1 (stereo unspecified)	-6.6	-1
COc1ccc(CNC(=O)C2=CC=CN3CCS(=O)(=O)N=C23)cc1	x	13
C=CCn1c(C(C)NC(=O)c2ccccc2)nc2ccccc21 (stereo unspecified)	x	-17
Cn1c(=O)n(CCOc2ccc(Cl)cc2)c2ccccc21	x	11
CC1Cc2ccccc2N1C(=O)Cn1ncc(Cl)c(Cl)c1=O (stereo unspecified)	x	-6
Cc1cccc(Nc2nc3nonc3nc2N2CCC(C)CC2)c1	0.2	x
CN(Cc1c(F)cccc1Cl)C(=O)CN1CCN(c2ncccn2)CC1	x	-4
CCOC(c1ccccc1)c1nc2ccccc2n1CC (stereo unspecified)	1.5	-1
CCN(CC)C1=NC(Cc2ccccc2)C(=O)N1c1ccccc1OC (stereo unspecified)	x	6
c1ccc2c(c1)nc(NC1CC1)c1nncn12	x	10
CCOC(NC(=O)c1ccccc1)(C(F)(F)F)C(F)(F)F	-1.2	x
CC(C)(CN1CCC(Cc2ccccc2)CC1)NS(=O)(=O)c1ccccc1	-1.9	5
Cc1ccc(C2C(/C=c3/sc4nc5ccccc5n4c3=O)=C(c3ccccc3)Oc3ccccc32)cc1 (stereo unspecified)	0.0	x
Cc1ccc(Cn2c(C(=O)O)c(CNC3CC3)c3ccccc32)cc1	1.5	9
Fc1ccc(Nc2nnns2)cc1	-0.4	x
CCc1nnc(NC(=O)CN(CC)CC)s1	x	-7
Cc1onc(-c2cccc(Cl)c2Cl)c1C(=O)O/N=C(\N)c1ccc([N+](=O)[O-])o1	-0.6	x
O=c1[nH][nH]c2c1CCCC2	x	-17
CNC(=O)NC(=O)CSc1nnc(-c2ccc(C(C)(C)C)cc2)n1C	x	-10
CN(C(=O)C1=CC(c2ccco2)=NS(=O)(=O)N1C)c1ccccc1	x	-21
O=S(=O)(CCSc1nccc(-c2ccc(Cl)cc2)n1)c1ccc(Cl)cc1	-0.7	x
CCCC(=O)N1CCN(c2nnc(-c3ccc(C)cc3)c3ccccc23)CC1	x	3
O=C(CSc1ncc(-c2ccccc2)n1CC1CCCO1)Nc1nccs1 (stereo unspecified)	-2.9	12
COc1cccc(NS(=O)(=O)c2ccc3[nH]cc(C(=O)NCc4ccccc4)c(=O)c3c2)c1	x	8
CC(C)C(=O)Nc1c(C(=O)N2CCN(Cc3ccccc3)CC2)oc2ccccc12	x	-10
CC(C)c1ccc(OCc2ccc(C(=O)Nc3cccnc3)o2)cc1	x	32
COC(=O)c1ccccc1NC(=O)c1ccc(-n2nc(C(F)(F)F)c3c2-c2ccoc2CC3)cc1	1.2	11
FC(F)(F)c1nnc2c3ccccc3nc(-c3ccccc3)n12	-2.7	-1
O=C(C(Cc1ccccc1)N1C(=O)C2C3C=CC(C3)C2C1=O)N1CCCCC1 (stereo unspecified)	x	16
O=C(c1sc2ccccc2c1Cl)N1CCCC1	-0.7	10
CC1(C)CC(=O)C(C(=S)Nc2ccccc2)=C(NCc2ccccc2)C1	0.9	9
CCOC(=O)c1nc(-c2ccccc2)oc1N(C)C	x	-3
O=C(N/N=C/C=C/c1ccccc1)c1ccncc1	x	-13
CC(C)Cc1nn2c(=O)cc(O)nc2s1	-6.8	1
Cc1csc(=O)n1CC(=O)NC1CCC(C)CC1 (stereo unspecified)	x	-7
NNC(=O)CSc1ccc(Cl)cc1	x	4
COc1ccc(-c2noc(=O)[nH]2)cc1	x	15
Cc1cc(/C=C/c2ccc(OCC(O)CNC(C)C)cc2)on1 (stereo unspecified)	-1.2	-4
O=C(O)CSCc1cnn(-c2ccccc2)c1-n1cccc1	x	12
Cc1ccc(S(=O)(=O)NCCNc2nccc(C(F)(F)F)n2)cc1	0.5	x
Cc1cc(S(=O)(=O)Oc2ccc(OCc3ccccc3)cc2)c(C)cc1Cl	-0.4	x

Taken from the entries so far for reference:
SMILES	MgrA-DNA mod	Sa helicase inh
O=C(CCCOc1ccccc1)Nc1ccccc1	x	8
CC1=C(C)CC2C(=O)N(c3ccc(N4CCOCC4)cc3)C(=O)C2C1 (stereo unspecified)	2.3	-6
COc1ccc(CC(=O)Nc2cccc(-c3ccc(S(C)(=O)=O)nn3)c2)cc1	x	13
CCOC(=O)CN1CCCCCC1=O	x	2
COc1cccc(C2CC(=O)N(c3ccccc3)C3=C2C(=O)CCC3)c1OC (stereo unspecified)	-2.0	-9
O=C1OCCC1OC(=O)C(c1ccccc1)c1ccccc1 (stereo unspecified)	x	8
CCC(SC1=NC(=O)C(c2ccccc2)C(=O)N1)C(=O)Nc1sc2c(c1C#N)CCCC2 (stereo unspecified)	4.5	1
Cc1cccc(NC(=O)N2CCOc3ccc(Cl)cc32)c1	5.2	8
CCOCC(O)CN (stereo unspecified)	x	-10
CCOc1ccc(N2C(=O)CC(N(Cc3ccc(Cl)cc3)C(=O)c3ccc(Cl)cc3)C2=O)cc1 (stereo unspecified)	-1.9	6
O=C(/C=C/c1ccco1)NC1CCCC1	x	14
CNc1nc(OCC(F)(F)C(F)F)nc(N(c2ccccc2)c2ccccc2)n1	-0.3	-9
CN(C)C(=O)CN1c2cccc3cccc(c23)S1(=O)=O	x	16
CCNC(=S)N(Cc1ccccc1)Cc1nc2ccccc2c(=O)[nH]1	-0.2	-3
O=C(CCN1C(=O)/C(=C/c2ccccc2)SC1=S)Nc1ccc(S(=O)(=O)Nc2nccs2)cc1	3.0	x
CCOC(=O)c1oc2ccccc2c1CN1C(=O)c2ccccc2C1=O	x	-20
O=C(COc1ncnc2ccccc12)NCC1CCCCC1	-1.9	-17
O=C(O)CCN=Cc1c(O)c2ccccc2oc1=O	2.8	11

Next entries follow.
SMILES	MgrA-DNA mod	Sa helicase inh
COC(CNc1cccc(F)c1C#N)OC	0.0	x
O=S(=O)(Nc1ccccc1F)c1ccc2[nH]c3c(c2c1)CCCC3	5.8	7
FC(F)(F)c1cc(-c2noc(CN3CCOCC3)n2)cc(C(F)(F)F)c1	-2.5	x
Cc1cc2c(cc1S(N)(=O)=O)S(=O)(=O)CCC2	3.8	x
COc1ccccc1NC(=O)Oc1ccc2ccncc2c1	x	-12
CCn1nnc(-c2cc(Cl)cc(Cl)c2)n1	-1.9	x
CCOC(=O)C1C(=O)CC(C)(O)C(C(=O)OCC)C1/C=C/c1ccccc1 (stereo unspecified)	-1.0	-1
O=[N+]([O-])c1ccsc1Sc1ccc(C(F)(F)F)cn1	-2.5	x

Assay outcomes from PubChem BioAssay.

Only part of the results is shown (hit frequency here may not be typical).
